# Screening results: PubChem BioAssay, several laboratories
# Beta2AR agonist: activates human beta-2 adrenergic receptor causing internalization; hit rate 0.43% among 340,000; response, % (concentration not given with the values); Am2.2-beta2AR cells, FAP receptor internalization, flow cytometry; reference of the scale not given here;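 active = response above a set limit, near 3 SD of response in nonfluorescent compounds, cut at about 42% in these data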;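 note: stock transfer was 100 nL into about 11 µL; a reference agonist was the positive control; negative values mostly stem from fluorescent compounds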
# UCH37 inh: inhibitors of human deubiquitinating enzyme UCH37. Q9Y5K5. purified proteasome/UCH37, Ub-AMC cleavage fluorescence. inhibition, % (concentration not given with the values). hit rate 0.33% among 330,000;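 active = mean of two replicates above 20%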;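 note: 0% = compound-free wells with enzyme and 100% = wells lacking proteasome; stock transfer was 100 nL into about 20 µL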
#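 System: Proteasome-associated human UCH37 deubiquitinase; Input: 0.15 nM proteasome in added enzyme buffer; Also added: Ub-AMC substrate from 1 µM stock; Incubation: 30 min compound-proteasome preincubation then 25 min substrate reaction, room temperature; Detection: fluorescence, ex 355 nm, em 460 nm; Read-out: % inhibition of Ub-AMC cleavage fluorescence; Benchmarks: no-proteasome and no-compound wells.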
# LANA-H2A inh: blocks KSHV LANA binding to histone H2A/H2B. Q9QR71. hit rate 0.6% among 320,000. AID 2629. cell-free LANA-H2A/H2B peptide, fluorescence polarization. inhibition, % (concentration not given with the values); in the data active = inhibition mostly above about 10%, no sharp cut-off; inactive = mostly below about 6.7%;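 note: stock transfer was 7.5 nL into about 10 µL; 0% = median of vehicle wells and 100% = median of positive control wells; one replicate is shown; the record names a cut of 25% in any replicate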
# Target sequence (Q9QR71 whole entry, looked up): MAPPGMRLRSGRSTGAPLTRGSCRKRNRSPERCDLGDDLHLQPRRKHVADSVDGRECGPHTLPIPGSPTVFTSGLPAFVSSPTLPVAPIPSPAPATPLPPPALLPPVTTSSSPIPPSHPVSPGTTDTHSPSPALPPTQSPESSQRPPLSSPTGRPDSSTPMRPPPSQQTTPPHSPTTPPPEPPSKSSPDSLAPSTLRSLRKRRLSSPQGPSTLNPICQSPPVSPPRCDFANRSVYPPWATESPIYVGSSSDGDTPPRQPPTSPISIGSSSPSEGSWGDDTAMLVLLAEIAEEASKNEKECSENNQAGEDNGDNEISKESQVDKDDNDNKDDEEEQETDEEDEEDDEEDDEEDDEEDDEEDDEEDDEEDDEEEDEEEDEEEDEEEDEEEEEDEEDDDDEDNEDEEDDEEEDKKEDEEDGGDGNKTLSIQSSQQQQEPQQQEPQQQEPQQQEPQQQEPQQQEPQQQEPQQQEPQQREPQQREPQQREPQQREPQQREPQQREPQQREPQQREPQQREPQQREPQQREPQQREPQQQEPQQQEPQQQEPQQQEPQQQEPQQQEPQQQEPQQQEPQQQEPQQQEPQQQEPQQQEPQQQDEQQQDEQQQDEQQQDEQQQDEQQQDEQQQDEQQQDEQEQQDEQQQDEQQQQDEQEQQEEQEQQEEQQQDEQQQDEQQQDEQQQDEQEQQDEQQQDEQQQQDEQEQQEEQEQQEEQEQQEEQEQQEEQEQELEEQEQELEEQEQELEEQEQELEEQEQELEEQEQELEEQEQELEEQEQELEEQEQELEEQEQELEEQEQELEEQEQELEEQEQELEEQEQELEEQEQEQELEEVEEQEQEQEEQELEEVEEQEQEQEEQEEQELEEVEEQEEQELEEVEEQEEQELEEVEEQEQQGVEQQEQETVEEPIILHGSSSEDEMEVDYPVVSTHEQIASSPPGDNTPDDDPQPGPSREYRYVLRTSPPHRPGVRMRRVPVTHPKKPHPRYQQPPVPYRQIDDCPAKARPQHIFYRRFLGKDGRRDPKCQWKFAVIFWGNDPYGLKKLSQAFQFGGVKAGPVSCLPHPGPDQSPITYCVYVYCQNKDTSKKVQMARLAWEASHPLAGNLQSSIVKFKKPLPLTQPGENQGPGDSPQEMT
# HNF4A DNA FP: change in binding of human HNF4 alpha to DNA; HNF4a-FITC DNA binding, fluorescence polarization, 1 h; activity change, % at 10 µM; hit rate 0.3% among 360,000; in the data active = activity change above about 30%, passing the limit was not always enough;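 note: controls were the assay level and a saturating level of protein; the project sought stronger binding though the title names inhibitors; some compounds called inactive have numbers as strong as hits; positive values seem to mean higher polarization but the record does not say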
# Bfl-1 A1 inh: inhibitors of the anti-apoptotic protein A1, read as caspase activation; MEF A1-2A-BIM cells, Caspase-Glo 3/7 luminescence, 3 h; percent of clofoctol response, vehicle zero; caspase activation, % (no concentration beside the values); hit rate 0.066% among 330,000;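 active = over half of replicate activation scores above 10%, or exactly half above 10 with the replicate mean above 10; inconclusive = replicate mean below 10 yet half the replicates above 10; inactive = over half of replicates below 10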;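 note: wells of about 30 µL received 50 nL stock; many hits fall short of the cut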
# E coli growth: inhibitors of Escherichia coli growth. OD600, 23 h; stronger effect = lower value. OD600 absorbance (no concentration beside the values). hit rate 0.21% among 330,000;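 active = OD600 absorbance below the run mean of sample wells minus 3.6 SD, in any replicate, cut at about 0.56 in these data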;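 note: stock transfer was 300 nL into about 60 µL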
# Vif TR-FRET: HIV-1 Vif–A3G interaction blockers – biochemical, TR-FRET, GST-Vif 1-94, biotin-A3G peptide, dose response retest, primary screen (AID 1117319). inhibition, %, or IC50 in µM where a hit was titrated. TR-FRET GST-Vif / biotin-A3G peptide binding; higher % means a stronger effect; test concentration not given here; strong numbers were not always called active. hit rate 0.57% among 260,000;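 active = above the screen mean plus three standard deviations and confirmed in dose response; inconclusive = results disagree or hit not tested in dose response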;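 note: Vif residues 1-94 fused to GST binding biotinylated APOBEC3G peptide 110-148; 0% = full assay without inhibitor and 100% = GST in place of GST-Vif; retest series ran down from 100 µM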
# An asterisk follows results filed as active; ? = inconclusive; nt = not tested or not shown; & = joins results of further samples.
SMILES,Beta2AR agonist,UCH37 inh,LANA-H2A inh,HNF4A DNA FP,Bfl-1 A1 inh,E coli growth,Vif TR-FRET
C=CCN(c1ccccc1)S(=O)(=O)c1ccc2c(c1)N(C(C)=O)CCO2,-6,1.9,-2.5,4.9,0.1,0.68,1%
COc1cc(OC)cc(C(=O)NC2=NCCS2)c1,-1,0.5,3.7,3.0,0.3,0.68,-2%
COc1cccc(OCC(=O)NNC(=O)c2ccc3ccccc3c2)c1,4,1.5,-2.9,-2.7,0.5,0.73,0%
Cc1ccccc1NC(=O)c1ccc2snnc2c1,-7,6.2,8.6,2.0,-0.7,0.76,17%
Cc1ccc2nc(C)c(C(=O)N/N=C/c3cccc([N+](=O)[O-])c3)cc2c1,1,nt,-7.0,3.7,1.3,nt,9%
CC(C)(C)C(=O)NC(c1ccccc1)c1c(O)ccc2ccccc12 (stereo unspecified),9,-4.3,-3.6,1.9,2.8,0.65,-10%
COc1ccc(-c2nc(CS(=O)(=O)CC(=O)NCc3cccc(F)c3)c(C)o2)cc1,-3,1.3,-1.8,-1.0,0.0,0.75,nt
CCCCN(C(=O)Cn1nnc2ccccc21)C(C(=O)NCCOC)c1ccc(OC)cc1 (stereo unspecified),-2,0.5,1.1,-4.5,0.0,0.74,10%
Clc1ccc(/C=N/Nc2ccccn2)cc1,2,nt,-6.0,0.4,-5.9,nt,-1%
O=C(O)c1ccccc1S(=O)(=O)NCC(O)COC1CCCCC1 (stereo unspecified),4,3.5,2.0,1.3,0.2,0.72,-3%
CCOC(=O)C1CCCN(C(=O)c2cc3ccc(OC)cc3[nH]2)C1 (stereo unspecified),-5,2.0,0.5,0.9,0.6,0.65,-1%
COc1ccc(/C=N/OCC(=O)Nn2c(C)nc3ccccc3c2=O)cc1,-7,nt,-3.0,1.0,-0.1,nt,-6%
CCOc1ccc(N=Nc2c(=O)[nH]n3c(C)cc(C)nc23)cc1,-11,25*,0.3,23,-2.6,0.64,-1%
CN1CCN(S(=O)(=O)c2ccc3[nH]cc(C(=O)O)c(=O)c3c2)CC1,-7,-4.9,4.4,2.7,0.0,0.7,5%
COc1ccc(CN2CCC(n3nccc3NC(=O)c3ccc4c(c3)OCO4)CC2)cc1C,18,6.6,1.8,-0.5,-0.6,0.66,nt

# Pulled one by one from the list above, three records:
SMILES,Beta2AR agonist,UCH37 inh,LANA-H2A inh,HNF4A DNA FP,Bfl-1 A1 inh,E coli growth,Vif TR-FRET
COc1ccc(-c2nc(CS(=O)(=O)CC(=O)NCc3cccc(F)c3)c(C)o2)cc1,-3,1.3,-1.8,-1.0,0.0,0.75,nt
CCCCN(C(=O)Cn1nnc2ccccc21)C(C(=O)NCCOC)c1ccc(OC)cc1 (stereo unspecified),-2,0.5,1.1,-4.5,0.0,0.74,10%
Cc1ccccc1NC(=O)c1ccc2snnc2c1,-7,6.2,8.6,2.0,-0.7,0.76,17%

# More compounds
SMILES,Beta2AR agonist,UCH37 inh,LANA-H2A inh,HNF4A DNA FP,Bfl-1 A1 inh,E coli growth,Vif TR-FRET
CC(C)(C)OC(=O)C[C@@H]1C/C=C\C[C@@H](CC(=O)N[C@H](CO)Cc2ccccc2)C(=O)N2CCC[C@@H]2COC1=O,0,1.5,2.2,3.5,2.1,nt,nt
CN(CC1CCOCC1)C(=O)CC1C(=O)NCCN1Cc1ccc(F)c(F)c1 (stereo unspecified),0,-15,-4.0,-2.1,-0.4,0.73,0%
COc1cccc(NC(=O)CN(C)C(=O)c2cccc(S(=O)(=O)N3c4ccccc4CC3C)c2)c1 (stereo unspecified),2,0.1,nt,-4.0,nt,0.72,2%
O=C(Nc1nnc(Cc2ccccc2)s1)c1ccccc1,-6,nt,-0.1,-5.6,-0.5,nt,-5%
Cc1ccc(C(=O)OCC(=O)Nc2c(Cl)cc(S(N)(=O)=O)cc2Cl)o1,-9,0.5,5.7,-5.9,0.0,0.68,6%
CC(NC(=O)CSc1nnc(COc2ccccc2)o1)c1ccccc1 (stereo unspecified),-1,0.0,20*,0.0,1.0,0.72,-2%
Cc1cccc(C)c1NC(=O)CN1C(=O)NC(C)(C2CC2)C1=O (stereo unspecified),-7,0.0,-1.4,2.4,0.0,0.71,nt
Cc1nnc2ccc(-c3cccc(NS(=O)(=O)c4ccccc4Cl)c3)nn12,22,1.3,0.2,1.3,0.1,0.6,-3%
Cc1ccc(C)c(OCC(=O)NCC(c2ccco2)N2CCCCC2)c1 (stereo unspecified),6,-0.5,-3.3,0.5,1.6,0.66,2%
CCOC(=O)c1sc(NC(=O)c2ccco2)nc1-c1ccccc1,-16,-3.3,0.3,-1.2,0.1,0.72,-54%
COc1ccc(/C=C(\NC(=O)c2ccco2)C(=O)N2CCCCC2)cc1,-8,5.0,-1.4,0.8,-0.6,0.69,nt
COc1ccc(OC)c(C(=O)COC(=O)c2cccnc2Cl)c1,-2,0.2,1.9,1.3,-0.7,0.66,nt
Cc1ncoc1C(=O)N1CCCC(CCC(=O)NCc2ccccc2F)C1 (stereo unspecified),-2,3.5,-2.0,1.1,0.5,0.7,nt
CCS(=O)(=O)Nc1ccc(C2=NN(C(=O)c3ccco3)C(c3cccc(F)c3)C2)cc1 (stereo unspecified),-11,-12,4.2,7.1,1.0,0.68,nt
COc1ccc(NC(=O)c2cccnc2Cl)c(S(=O)(=O)N2CCOCC2)c1,5,0.3,-12,5.5,0.3,0.66,22%
COc1ccc(C(=O)c2cnc(/N=C/N(C)C)s2)cc1,-18,nt,1.6,0.3,0.7,nt,4%
O=S(=O)(NCCc1cn2ccccc2n1)c1ccc(-c2ccccc2)cc1,-9,-1.2,1.7,0.1,-0.7,0.67,nt
O=C(NC(=O)c1c(F)cccc1F)O/N=C1\CCCc2occc21,1,nt,5.3,2.5,1.1,nt,-1%
c1ccc2c(-c3nn[nH]n3)cccc2c1,-12,0.8,3.6,-2.6,-0.1,0.66,-5%
O=C1NC(=O)C(CC(=O)N(Cc2cccs2)C2(C(=O)NC3CCCCC3)CCCCC2)N1 (stereo unspecified),4,3.4,-2.3,2.0,0.1,0.69,-7%
Cc1cccc(NC(=O)CSCC(=O)N(C)Cc2ccc(Cl)c(Cl)c2)c1,14,4.8,-3.9,4.9,-1.1,0.68,-12%
O=C(COC(=O)c1ccccc1O)Nc1cccnc1Cl,-1,4.0,-3.2,1.1,-0.4,0.67,-13%
CCOc1cc(N2CCOCC2)c(OCC)cc1NC(=O)C1=COCCO1,-4,-1.4,nt,-0.3,nt,0.68,1%
COC(=O)NNC(=O)COc1ccc2ccccc2c1Br,4,6.8,2.6,2.0,-1.0,0.68,nt
O=[N+]([O-])c1cccc(-c2ccc3nnc(SCc4cccnc4)n3n2)c1,-1,2.1,nt,-2.3,nt,0.68,nt
COc1cc(/C=C2\C(=N)N3N=C(C)SC3=NC2=O)cc(OC)c1OCCOc1ccccc1C,19,-88,2.7,2.0,-0.4,0.69,nt
C/C(=N\Nc1ccc2nncn2n1)c1cccs1,-2,nt,3.5,-1.3,-2.5,nt,-1%
Nc1c2nc(-c3ccccc3)[nH]c(=O)c2nc(=O)n1-c1ccccc1,-3,-7.9,-13,9.9,0.9,0.67,2%
CC(=O)c1ccc(OCC(O)CN2CCN(S(=O)(=O)c3c(C)cc(C)cc3C)CC2)cc1 (stereo unspecified),4,2.3,0.8,-1.5,?,0.66,-1%
O=C(NNc1ccccc1)C(CCO)C(=O)NNc1ccccc1,1,0.4,-0.5,2.2,0.7,0.71,16%
COC(=O)c1sc(-c2ccc(Cl)cc2)cc1NC(=O)/C=C/C(=O)O,2,nt,0.7,-6.3,-0.7,nt,-12%
Cc1ccc(-n2c(CCc3nc4ccccc4[nH]3)n[nH]c2=S)cc1,-3,-0.5,0.1,0.2,0.1,0.72,nt
O=C(Cc1ccc(Br)cc1)NCCCn1ccnc1,-1,2.6,5.1,-1.5,1.0,0.65,nt
CCOC(=O)N1CCC(NC(=O)C2CCN(S(=O)(=O)N3CCCC3)CC2)CC1,-7,1.4,-3.0,4.0,0.3,0.68,0%
Cc1nn(C(C)C(=O)NC2C(=O)N3C(C(=O)O)=C(CSc4nnnn4C)CSC23)cc1Cl (stereo unspecified),-4,-1.4,2.1,-6.5,0.6,0.43*,nt
Oc1ccc(C(=S)N2CCCC2)cc1,1,6.1,1.1,2.9,0.5,0.67,nt
COc1cc(C(=O)N2CCN(C(=O)c3cccc4ccccc34)CC2)cc(OC)c1OC,0,1.4,6.8,1.1,-0.3,0.69,nt
CC1(C)C(=O)Nc2ccccc2N1C(=O)COc1cccnc1[N+](=O)[O-],2,5.7,2.6,6.9,?,0.68,22%
O=C(Cn1cccc(C(F)(F)F)c1=O)c1ccc(Cl)cc1,-9,2.3,-1.3,0.8,-2.9,0.67,3%
COc1cc(C2Nc3cccc4cccc(c34)N2)cc(OC)c1OC(C)=O,13,1.7,-7.2,0.7,0.3,nt,42%
Cc1cc(C)c[n+](-c2nc3ccccc3nc2[N-]S(=O)(=O)c2ccc(Br)s2)c1,-28,2.0,-5.6,-23,-0.5,0.72,0%
CCOc1ccc(/C=C/C(=O)C(C(N)=O)=C2SCCS2)cc1,1,1.6,4.3,0.7,0.0,nt,2%
Cc1ccc(CN2CCN(CC(=O)N/N=C/c3ccccc3F)CC2)cc1,2,nt,1.1,1.4,-1.5,nt,0%
COc1ccc(-c2nnc3ccc(SCC(=O)N4CCN(c5ccccc5)CC4)nn23)cc1,5,-0.6,nt,-3.5,nt,0.71,nt
CC(=O)c1sc2nc(SCC(=O)NCCc3ccccc3)[nH]c(=O)c2c1C,11,-44,4.2,-0.5,0.8,0.68,nt
COc1ccc2nc(SC(C)C(=O)NC3CCCC3)[nH]c2c1 (stereo unspecified),2,2.8,nt,-5.6,nt,0.69,-3%
CCC(C)NC(=O)CCCCCn1c(=O)[nH]c2cc(OC)c(OC)cc2c1=O (stereo unspecified),-1,-16,-4.3,5.3,0.0,0.72,9%
COc1ccc(C(=O)Nc2cccnc2)cc1S(=O)(=O)N1CCOCC1,-1,4.1,2.2,-1.9,-0.6,0.72,65%
CC(Oc1ccccc1)C(=O)NNC(=O)c1cccs1 (stereo unspecified),-95,0.5,-0.3,-2.7,-0.9,0.67,1%
CCN(CC)C(=S)Nc1ccc2nc3n(c(=O)c2c1)CCCCC3,4,1.7,5.8,5.4,-0.1,0.74,nt
Cc1cc(NC(=O)c2ccc(Cl)c([N+](=O)[O-])c2)no1,-2,1.7,3.4,3.2,0.5,0.65,-7%
CN(C(=O)COc1ccccc1)C1CCS(=O)(=O)C1 (stereo unspecified),11,-0.4,-3.3,-2.2,-0.1,0.68,-7%
CCC(c1nnc(SCC(=O)N2CC(=O)Nc3ccccc32)n1Cc1ccccc1)N(C)C (stereo unspecified),9,-4.4,4.9,5.8,0.7,0.7,10%&-8%
Nn1c(C2COc3ccccc3O2)n[nH]c1=S (stereo unspecified),-5,4.1,1.3,3.1,0.3,0.69,-4%
COCCCNC(=O)c1c(NC(=O)C2COc3ccccc3O2)sc2c1CCCC2 (stereo unspecified),4,2.8,-0.5,1.1,-2.0,0.77,-3%
Cc1[nH]c(SCC(=O)Nc2cc(S(C)(=O)=O)ccc2Cl)nc1Cc1ccccc1,-4,0.9,-250,6.7,-0.6,0.7,-1%
O=C(COc1ccccc1Cl)NCc1ccccc1,-7,3.5,0.5,-5.1,1.7,0.63,7%
CC(C)(C)OC(=O)NCCCCCc1nnc(SCc2ccc(F)cc2)o1,-10,nt,-12,-2.2,2.0,nt,0%
